PINK1 expr mod: changes PINK1 expression; Potency, µM (series often up to 76.6 µM), for the others: at the highest dose activation (PINK1 increase), hits mostly activators; PINK1 immunofluorescence, high-content cytometry, 24 h; AID 624263; 410,000 tested, 0.2% active; active = well fitted activation curve with a large enough effect; inconclusive = small, poorly fitted or top-dose-only effect; inactive = flat fitted curve, though single readings scatter; cell line not stated here;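 note: potency is the fitted concentration of half-maximal effect; % of control where 0% means no effect; nearly all actives have a fitted effect of over 65% in size; a mitochondrial uncoupler was the plate control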
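A stable cell line was treated with compounds at 5 concentrations for 24 hours, with CCCP as control. PINK1 levels and mitochondrial localization were measured by immunofluorescence with mitochondrial, cell and nuclear markers after fixation, read by laser-scanning cytometry.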
TRPML1 agonist: agonists of human TRPML1 channel; 410,000 tested, 0.12% active; activation, % (no concentration beside the values); TRPML1-expressing cells, Ca2+ dye fluorescence, FDSS; host cell line not named in the record; reference of the full effect not given here; Q9GZU1; in the data active = activation above about 50%; inconclusive = about 30% to 50%; inactive = below about 30%; note: 0% is about no effect; the text of the record puts the active cut at 80%
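Tetracycline-induced TRPML1-DL cells are seeded and incubated overnight before loading with a no-wash Ca2+ dye and quencher. Agonist activity is taken from the 110 s fluorescence read following compound pin-transfer on an FDSS, before EC80 54-4 challenge.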
Six1-Eya2 inh: blocks human Six1 binding to Eya2; Q15475+O00167; AlphaScreen GST-Six1/His-Eya2 binding, biochemical; stronger effect = lower value; control for the full effect not named in the record; activity change, % (no concentration beside the values); 360,000 tested, 0.56% active; in the data active = activity change below about -65%; inconclusive = about -30% to -65%; inactive = above about -30%; note: % is set by controls: 0 for no effect and ±100 for the full control effect; compound concentration not given in the record
Target sequence (O00167 whole entry, looked up): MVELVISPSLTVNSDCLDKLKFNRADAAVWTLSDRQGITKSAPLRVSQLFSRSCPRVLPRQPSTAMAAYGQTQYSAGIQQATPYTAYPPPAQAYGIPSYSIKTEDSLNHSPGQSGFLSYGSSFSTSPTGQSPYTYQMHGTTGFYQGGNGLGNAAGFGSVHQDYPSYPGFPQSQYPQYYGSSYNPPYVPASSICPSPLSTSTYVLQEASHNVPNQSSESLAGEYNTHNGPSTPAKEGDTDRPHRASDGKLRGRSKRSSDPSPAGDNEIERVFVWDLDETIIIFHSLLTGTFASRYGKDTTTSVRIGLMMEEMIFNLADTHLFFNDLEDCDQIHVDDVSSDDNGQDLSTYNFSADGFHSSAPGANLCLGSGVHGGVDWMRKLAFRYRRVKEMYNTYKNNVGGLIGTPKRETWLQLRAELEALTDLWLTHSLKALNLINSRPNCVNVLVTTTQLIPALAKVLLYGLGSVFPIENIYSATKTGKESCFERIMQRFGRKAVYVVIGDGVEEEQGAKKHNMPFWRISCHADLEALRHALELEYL
Target sequence (Q15475 whole entry, looked up): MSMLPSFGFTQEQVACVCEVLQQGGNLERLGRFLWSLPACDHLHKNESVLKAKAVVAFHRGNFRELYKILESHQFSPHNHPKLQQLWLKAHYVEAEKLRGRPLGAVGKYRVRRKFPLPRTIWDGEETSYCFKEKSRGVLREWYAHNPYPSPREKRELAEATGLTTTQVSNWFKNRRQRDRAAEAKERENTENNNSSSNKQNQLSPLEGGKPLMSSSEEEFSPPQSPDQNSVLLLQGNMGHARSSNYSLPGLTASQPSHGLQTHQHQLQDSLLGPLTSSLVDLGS
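Six1/Eya2 binding was read as AlphaScreen signal after compounds were pinned into GST-Six1 plus His-tagged Eya2 (5X stock 250/500 nM) in pH 8.0 Tris/NaCl/TCEP buffer, beads added, then incubated 1 h, 37 C, dark.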
D2 PAM: positive allosteric modulators of human D2 dopamine receptor; P14416; DiscoveRx D2 beta-arrestin cells, luminescence, 90 min; 100% = 57 uM dopamine signal; potentiation, % (concentration not given with the values); 360,000 tested, 0.23% active; AID 624464; active = potentiation of 50% or more; inconclusive = 30% to 50%; inactive = 30% or less;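 note: compound concentration not given in the record; tested on top of an EC20 dose of dopamine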
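D2 cells co-treated with compound plus 50 nM dopamine (EC20) for 90 min at 37 deg C to detect potentiation. Beta-arrestin recruitment was read as enzyme-fragment luminescence after 1 h at ambient temperature. Full response was set by 57 uM dopamine.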
D2 agonist: activates the human D2 dopamine receptor | activation, % (test concentration not listed) | 360,000 tested, 0.084% active | P14416 | DiscoveRx PathHunter D2 beta-arrestin, luminescence, 90 min; 100% = 57 uM dopamine signal; in the data active = activation above about 40%; inconclusive = about 15% to 40%; inactive = below about 15%; note: compound concentration not given in the record; the text of the record calls up to 30% inactive
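DiscoveRx PathHunter D2 beta-arrestin cells (2,100/well) attached overnight, then compound-stimulated 90 min at 37 C in HBSS/10 mM HEPES/0.1% Tween-20 buffer; beta-galactosidase complementation read by luminescence after 1 h at ambient temperature. Dopamine 57 uM final (EC100) as control.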
TRPML1 blocker: inhibitors of human TRPML1 channel | Q9GZU1 | TRPML1-inducible cells, Ca2+ dye fluorescence, FDSS; stronger effect = lower value; inhibition of EC80 agonist-evoked calcium signal | activity change, negative = inhibition, % (concentration not given with the values) | 390,000 tested, 0.02% active; in the data active means activity change below about -50%; inconclusive means about -30% to -50%; inactive means above about -30%;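 note: stimulus is agonist 54-4 at its EC80 concentration; % is set by controls: 0 for no effect and ±100 for the full control effect; compound concentration not given in the record; the text of the record puts the active cut at -80%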
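Calcium fluorescence in TRPML1-DL cells induced overnight with Tet: a 110 s read after compound pin addition, then a 110 s antagonist read after challenge with 54-4 at 4 uM final (EC80).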
Numbers without * were called inactive; ? = inconclusive; . = not tested or not shown; & = joins results of further samples; [ ] = dose if it differs, or a comment.

SMILES	PINK1 expr mod	TRPML1 agonist	Six1-Eya2 inh	D2 PAM	D2 agonist	TRPML1 blocker
CN(C)c1ccc(CNC(=O)C2CCC(CNc3c(N4CCCCC4)c(=O)c3=O)CC2)cc1 (stereo unspecified)	1.0%	0.2	-5	-1	-3.9	0
Oc1ccc(-c2onc(C(F)(F)F)c2-c2cscn2)c(O)c1	0.7%	-1.3	7	11	6.4	8
CC(=O)N1CCN(Cc2nc3cc(NC(=O)c4ccccc4)ccc3n2C)CC1	5.6%	-0.3	-2	4	2.7	5
O=C(CCc1nc2ccccc2c(=O)[nH]1)Nc1cc(C(F)(F)F)ccc1N1CCCC1	17%	0.4	8	-2	-1.2	-15
COCC(C)n1c(SCC(=O)Nc2ccc3c(c2)OCCO3)nc2ccccc2c1=O (stereo unspecified)	0.8%	0.2	0	-13	1.1	-12
O=C(CSc1nc2cccnc2n1Cc1ccccc1)NCc1ccco1	-0.4%	-0.5	1	15	-2.4	-7
CCCC1NC(=S)N(C2CCCCC2)C1=O (stereo unspecified)	0.0%	1.8	27	-4	-3.7	3
COc1ccc(Cl)cc1S(=O)(=O)NC(C)C(=O)NCc1ccccn1 (stereo unspecified)	-2.0%	-0.6	-18	-2	0.6	7
O=C(Cn1c(NCCCO)nc2ccccc21)c1cccs1	0.2%	-0.1	10	-6	-2.9	30
Cc1ccc(CNC(=O)c2c[nH]c3ccc(S(=O)(=O)Nc4ccc(C(C)C)cc4)cc3c2=O)cc1	-1.1%	0.0	.	.	.	0
CCCNC(=O)Cn1c(=O)/c(=C\c2ccc(-c3cccc([N+](=O)[O-])c3)o2)s/c1=C\C(=O)C(C)(C)C	0.2%	2.6	1	18	-0.3	4
CCC(=O)NNC(=O)CCC(=O)Nc1ccc(C)cc1C	0.9%	-0.7	2	-2	-0.7	8
O=C(c1ccccc1)c1nc2ccccc2n(CCCn2c(=O)c(C(=O)c3ccccc3)nc3ccccc32)c1=O	-0.1%	2.8	2	5	0.3	5
N#CCc1ccc(OCCCN2CCC(C(O)(c3ccccc3)c3ccccc3)CC2)cc1	-0.3%	11	1	.	.	.
Cc1oc2ccc(O)c(CN3CCCC3)c2c1C(=O)Nc1ccc(C(C)C)cc1	0.6%	-1.1	.	.	.	8
O=C(CCc1nc2ccccc2c(=O)[nH]1)NNC(=O)c1ccc(F)cc1	-0.1%	2.5	1	-4	0.6	-3
Cc1ccc(C(=O)O)cc1-c1ccc(/C=C2\SC(=O)N(CC(=O)Nc3ccccc3)C2=O)o1	0.2%	0.4	1	-15	-5.1	-12
COc1ccccc1CCNC(=O)C1CC(=O)N(c2ccccc2F)C1 (stereo unspecified)	1.2%	-0.5	-2	-5	0.8	-17
CN=C(Nc1cccnc1)c1ccccc1	0.8%	0.2	-3	-4	0.3	8
COc1ccc(C(=O)NC(C)c2cc(OC)c(OC)cc2Br)cc1 (stereo unspecified)	13%[38.3 µM]	3.2	-1	3	0.7	7

Next section; it opens with the five that closed the last part.
SMILES	PINK1 expr mod	TRPML1 agonist	Six1-Eya2 inh	D2 PAM	D2 agonist	TRPML1 blocker
O=C(CCc1nc2ccccc2c(=O)[nH]1)NNC(=O)c1ccc(F)cc1	-0.1%	2.5	1	-4	0.6	-3
Cc1ccc(C(=O)O)cc1-c1ccc(/C=C2\SC(=O)N(CC(=O)Nc3ccccc3)C2=O)o1	0.2%	0.4	1	-15	-5.1	-12
COc1ccccc1CCNC(=O)C1CC(=O)N(c2ccccc2F)C1 (stereo unspecified)	1.2%	-0.5	-2	-5	0.8	-17
CN=C(Nc1cccnc1)c1ccccc1	0.8%	0.2	-3	-4	0.3	8
COc1ccc(C(=O)NC(C)c2cc(OC)c(OC)cc2Br)cc1 (stereo unspecified)	13%[38.3 µM]	3.2	-1	3	0.7	7
COc1ccc(N2CCN(C(=O)c3ccc4c(c3)OCO4)CC2)cc1	-0.8%	-1.1	-2	-18	-0.1	1
C=CCNC(=O)c1c(CS(=O)(=O)c2ccccc2)noc1C(=O)NCc1ccccc1	8.1%	-0.8	1	-44	-0.7	-15
Cc1ccccc1C(NC(N)=O)c1ccccc1 (stereo unspecified)	3.6%[38.3 µM]	0.3	-12	-3	-2.4	-2
Cc1ccc(C2=NOC(C)(c3nnc(-c4cccc(Cl)c4)o3)C2)cc1 (stereo unspecified)	-0.5%	1.0	5	-3	-1.7	8
N#CCN1CCC/C1=C\[N+](=O)[O-]	0.2%[38.3 µM]	0.6	2	-19	-3.3	35
CCCn1c2ccccc2c2cnn(CC(=O)NCc3ccc(OC)cc3)c(=O)c21	2.2%	-0.8	.	.	.	-1
C=CC1=C2C=C(C3CC3)N(C3CC3)C=C2C(=O)C(C)(OC(=O)c2ccco2)C1=O (stereo unspecified)	1.0%	0.1	-10	-3	2.4	-5
CCc1ccc(N2CC(C(=O)N3CCN(c4ccc([N+](=O)[O-])cc4)CC3)CC2=O)cc1 (stereo unspecified)	-0.5%	-0.8	7	-6	0.2	-4
Cc1ccc(NC(=O)Cn2c(=O)n(Cc3ccco3)c(=O)c3ccccc32)c(C)c1	0.0%&-0.7%	0.3&0.5	-3	2	-2.6	32&-22
CC1CCN(C2=C(NS(=O)(=O)c3ccccc3)C(=O)c3ccccc3C2=O)CC1	2.9%	?	-72*	-2	13	-14
COc1ccc(C(C)(O)c2nc(-c3cnc4ccccc4c3)cs2)cc1 (stereo unspecified)	0.3%	0.5	-5	-2	3.4	.
Cc1cc(NC(=O)COC(=O)C2CCN(S(=O)(=O)c3ccc(Cl)cc3)CC2)no1	0.0%	1.1	-3	3	-3.3	-6
COc1cc(OC)cc(C(=O)N[C@H](C(=O)NCc2ccccc2)C(C)C)c1	0.7%	1.3	-3	-4	-4.1	-4
COCCOC1CCN(Cc2cn(Cc3ccccc3)nc2-c2cc3ccccc3o2)CC1	0.3%	2.7	0	-13	-6.8	32
O=C(Nc1ncc2c(n1)CC(c1ccccc1)CC2=O)c1ccco1 (stereo unspecified)	1.4%[38.3 µM]	3.2	0	13	-2.7	-11
O=C(NCc1ccc(Cl)cc1)c1ccc(-c2ccc(F)c(F)c2)c2ccoc12	2.9%	1.0	18	-3	-3.7	.
O=C(C1CCC(CNc2c(N3CCCCC3)c(=O)c2=O)CC1)N1CCN(C2CCCCC2)CC1 (stereo unspecified)	-1.1%	-0.3	1	-7	-4.3	4
COc1ccc(C2C3=C(CCCC3=O)N(CC(=O)O)C3=C2C(=O)CCC3)cc1Cl	1.0%	-0.5	-5	-3	4.9	-10
COc1cc(C(=O)NCCC2=CCCCC2)ccc1OC1CCN(C(C)=O)CC1	-1.0%	-0.6	19	-6	-0.8	1
COc1ccc(-c2oc3ccc(-c4cc(OC)c(OC)c(OC)c4)cc3c2C#Cc2ccsc2)cc1	0.8%	0.0	1	-5	-1.6	26
COCCNc1nc(N)c([N+](=O)[O-])c(NCc2ccccc2)n1	5.8%	1.7	-3	6	0.1	-9
COc1cccc(-n2cc(C(=O)NC(C)C)c3ccccc3c2=O)c1	3.7%	0.0	2	-9	-3.7	-17
CCC(C)N1CC(C(=O)NC2CCCCC2)CC1=O (stereo unspecified)	0.7%	-0.7	4	7	0.1	-8
CC(=O)c1ccc(NC(=O)C2CCCNC2=O)cc1 (stereo unspecified)	0.6%	1.3	1	-8	-2.0	20
CCOC(=O)c1sc(NC(=O)OC)c(C(=O)OC)c1C	9.4%	0.0	-19	-1	-2.2	18
CCCN1CCN(C(=O)Nc2ccc(C(=O)OCC)cc2)CC1	2.9%[38.3 µM]	0.3	2	-13	-1.6	-2
O=C(CNC(=O)c1ccccc1F)OC(C(=O)Nc1cc(C(F)(F)F)ccc1Cl)c1ccccc1 (stereo unspecified)	.	0.1	1	-12	1.7	-11
CC1(C)Oc2cc(N)c([N+](=O)[O-])cc2O1	2.2%	0.4	0	2	-2.9	-7
CCn1c(-c2ccccc2Cl)nn(CC(=O)Nc2ccccc2OC)c1=S	-0.6%	0.9	3	8	1.8	17
O=C(Cn1c(=O)oc2cc(S(=O)(=O)NCc3ccccc3)ccc21)N(CCO)Cc1ccccc1	-0.6%	-0.2	.	.	.	7
CCCOc1ccc(CNC(=O)Cn2ncc3ccccc32)cc1	2.0%	.	4	-9	4.6	.
COc1ccc(NC(=S)NCCCN2CCN(C3CCCCC3)CC2)cc1	-0.6%	-0.7	0	-34	-1.6	4
COc1ccc(Br)cc1/C=N/NC(=O)c1ccco1	2.9%	-0.6	3	-16	-3.8	2
COc1ccc(C2CC(=O)C=C(NCc3ccc4c(c3)OCO4)C2)cc1 (stereo unspecified)	0.4%	-0.2	-3	-16	0.1	5
COc1ccccc1C(=O)Nc1ccc2c(c1)CCCN2C(=O)c1cccs1	-1.6%	1.2	4	-1	1.3	12
CN1CCc2c(sc3c2C(=O)NC(c2ccc(C(C)(C)C)cc2)N3)C1 (stereo unspecified)	4.1%	3.0	.	.	.	12
COc1ccccc1N1CCN(C(=O)COc2cc(C)cc3oc(=O)cc(C)c23)CC1	-0.1%	0.6	2	-5	7.4	-28
COc1ccc(CNC(=O)c2cc(-c3ccc(OC)cc3)on2)cc1	2.4%	-0.4	.	.	.	10
COc1ccc(CNC(=O)c2ccccc2SC)cc1	-0.3%	-0.9	-3	-37	-18	36
CCCCn1c(=N)c(S(=O)(=O)c2ccccc2)cc2c(=O)n3cccc(C)c3nc21	6.2%	-0.5	.	.	.	0

One compound at a time (already shown). Order of screens: PINK1 expr mod | TRPML1 agonist | Six1-Eya2 inh | D2 PAM | D2 agonist | TRPML1 blocker
Profile of COc1ccc(C2CC(=O)C=C(NCc3ccc4c(c3)OCO4)C2)cc1 (stereo unspecified) = 0.4% | -0.2 | -3 | -16 | 0.1 | 5
Profile of COc1ccc(Br)cc1/C=N/NC(=O)c1ccco1 = 2.9% | -0.6 | 3 | -16 | -3.8 | 2

Later entries.
SMILES	PINK1 expr mod	TRPML1 agonist	Six1-Eya2 inh	D2 PAM	D2 agonist	TRPML1 blocker
Cc1ccc(-c2nn3c(C)nnc3c3ccccc23)cc1S(=O)(=O)NCc1ccco1	.	0.2	-4	-1	1.1	8
Cc1cccc(C)c1Nc1c(-c2ccc(N3CCOCC3)cc2)nc2cnccn12	2.8%	0.6	-5	-9	0.7	23
COc1ccc(CN(C)CC2CCCN(CCc3ccccc3C)C2)cc1O (stereo unspecified)	0.8%	0.4	-12	-14	2.9	-7
COC(=O)c1ccccc1NC(=O)c1ccc2nccnc2c1	0.4%	-0.8	-11	3	-6.6	20
O=C(O)CNC(=O)CCN1C(=O)c2ccccc2C1=O	-1.9%[38.3 µM]	0.4	2	-3	0.2	1
COc1ccc(CN2COc3ccc4c(-c5ccc(OC)cc5)cc(=O)oc4c3C2)cc1	1.3%	-1.1	.	.	.	-13
COC(CNC(=O)CNC(=S)N(Cc1ccccc1)Cc1cccnc1)OC	0.4%	-0.9	-8	-5	-3.6	-12
Cc1cccc(NC(=O)CN2C(=O)C3CC=CCC3C2=O)c1C (stereo unspecified)	1.9%	0.2	-3	-3	-1.8	-4
COc1cc(NC(=O)C2CC(c3c(F)cccc3Cl)=NO2)cc(OC)c1OC (stereo unspecified)	5.3%	0.2	-2	3	2.1	16
O=S1(=O)C[C@H](N2CCN(CC3CC3)CC2)[C@@H](COCc2ccccc2)N1	-0.7%	0.0	6	-8	-2.9	.

High-throughput results deposited in PubChem by National Center for Advancing Translational Sciences (NCATS).
